Screens deposited in PubChem by Broad Institute.
Vaccinia stage: Vaccinia orthopox stage-specific inhibition | Vaccinia-infected cells, mCherry/Venus stage reporter fluorescence; active compounds read low; some inactives read as strong as hits | activity change (mCherry), % (test concentration not listed) | 0.01% of 89,000 active;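 active = mCherry past -33% and 40 or more points under the early reporter, replicates agreeing; inconclusive = past -33% without that gap or agreement; tested in A549 cells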;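 also: scaled between vehicle wells and reference inhibitor wells; 23 nL library stock went into each well; one replicate is shown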
Vaccinia stage Venus: second read-out of Vaccinia stage, no call of its own (marks repeat the call); activity change (Venus), %; measured here: Venus reporter, other viral stage;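 negative = less Venus signal; first of two replicates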
An asterisk follows results filed as active; ? = inconclusive; · = not tested or not shown.

Values run as follows: Vaccinia stage	Vaccinia stage Venus
(1) C[C@H](O)C#Cc1cnc2c(c1)C(=O)N([C@@H](C)CO)C[C@H](C)[C@@H](CN(C)C(=O)Nc1ccc(F)cc1)O2
 : 17	4
(2) CO[C@H]1CN(C)C(=O)c2ccc(NC(=O)NC(C)C)cc2OC[C@H](C)N(C)C[C@H]1C
 : 9	6
(3) COc1ccc(S(=O)(=O)N[C@H]2CC[C@@H](CC(=O)O)O[C@@H]2CO)cc1
 : 10	11
(4) Cc1ccc(S(=O)(=O)N(C)C[C@H]2Oc3ccc(NS(=O)(=O)c4cccs4)cc3CC(=O)N([C@@H](C)CO)C[C@H]2C)cc1
 : 0	-14
(5) O=C(C[C@@H]1C[C@@H]2c3cc(NS(=O)(=O)c4ccc(F)cc4)ccc3O[C@@H]2[C@H](CO)O1)NCc1ccccc1F
 : 17	9
(6) CC(C)C(=O)Nc1ccc2c(c1)C(=O)N(C)[C@@H]1CC[C@@H](CC(=O)NCCCN(C)C)O[C@@H]1CO2
 : -10	-6
(7) COc1ccc(S(=O)(=O)Nc2ccc3c(c2)C(=O)N([C@H](C)CO)C[C@H](C)[C@H](CN(C)C(=O)NC(C)C)OCCCC[C@@H](C)O3)cc1
 : 23	13
(8) O=C(C1CCC1)N1CCCCN2[C@H](CO)[C@@H](c3ccc(C#CC4CCCC4)cc3)[C@H]2C1
 : ?	·
(9) COc1ccc(S(=O)(=O)Nc2ccc3c(c2)C(=O)N([C@@H](C)CO)C[C@H](C)[C@H](CN(C)C)OCCCC[C@@H](C)O3)cc1
 : -6	-8
(10) CN(C)CC(=O)N1[C@H](C#N)[C@@H](c2ccc(/C=C/c3ccccc3)cc2)[C@H]1CO
 : -4	1
(11) C/C=C/c1cnc2c(c1)C(=O)N([C@@H](C)CO)C[C@H](C)[C@H](CN(C)Cc1cccc(C(=O)O)c1)O2
 : 17	7
(12) C[C@H](CO)N1C[C@H](C)[C@H](CN(C)C(=O)C2CCOCC2)Oc2ncc(C#CC(C)(C)O)cc2C1=O
 : 16	6
(13) COc1ccc(CN2C[C@@H](O)COC[C@H]3O[C@H](CC(=O)NCc4ccncn4)CC[C@@H]32)cc1
 : 4	5
(14) CCC(=O)N1[C@@H]2c3ccc(-c4ccccc4F)c(=O)n3C[C@@H]2[C@@H](CO)[C@@H]1C(=O)OC
 : -2	-1
(15) COc1ccc(NC(=O)Nc2cccc3c2O[C@@H](CN(C)S(C)(=O)=O)[C@H](C)CN([C@@H](C)CO)C3=O)cc1
 : 10	4
(16) CC(=O)N(C)C[C@H]1Oc2ncc(C#Cc3ccccc3F)cc2C(=O)N([C@@H](C)CO)C[C@H]1C
 : -11	-7
(17) C[C@H](CO)N1C[C@H](C)[C@@H](CN(C)C(=O)Nc2ccc(F)cc2)Oc2ncc(-c3ccc(F)cc3)cc2C1=O
 : 22	8
(18) C[C@H]1CN([C@@H](C)CO)C(=O)c2cc(NC(=O)NC3CCCCC3)ccc2O[C@@H]1CN(C)S(=O)(=O)c1cccs1
 : 3	0
(19) CN1C(=O)c2cc(NC(=O)Cc3ccccc3)ccc2OC[C@@H]2O[C@@H](CC(=O)NC3CCC3)CC[C@H]21
 : 11	8
(20) COc1ccc(NC(=O)N(C)C[C@@H]2Oc3ccc(N(C)C)cc3C(=O)N([C@H](C)CO)C[C@H]2C)cc1
 : 8	10

Next part; the last seven above are carried over.
Values run as follows: Vaccinia stage	Vaccinia stage Venus
(14) CCC(=O)N1[C@@H]2c3ccc(-c4ccccc4F)c(=O)n3C[C@@H]2[C@@H](CO)[C@@H]1C(=O)OC
 : -2	-1
(15) COc1ccc(NC(=O)Nc2cccc3c2O[C@@H](CN(C)S(C)(=O)=O)[C@H](C)CN([C@@H](C)CO)C3=O)cc1
 : 10	4
(16) CC(=O)N(C)C[C@H]1Oc2ncc(C#Cc3ccccc3F)cc2C(=O)N([C@@H](C)CO)C[C@H]1C
 : -11	-7
(17) C[C@H](CO)N1C[C@H](C)[C@@H](CN(C)C(=O)Nc2ccc(F)cc2)Oc2ncc(-c3ccc(F)cc3)cc2C1=O
 : 22	8
(18) C[C@H]1CN([C@@H](C)CO)C(=O)c2cc(NC(=O)NC3CCCCC3)ccc2O[C@@H]1CN(C)S(=O)(=O)c1cccs1
 : 3	0
(19) CN1C(=O)c2cc(NC(=O)Cc3ccccc3)ccc2OC[C@@H]2O[C@@H](CC(=O)NC3CCC3)CC[C@H]21
 : 11	8
(20) COc1ccc(NC(=O)N(C)C[C@@H]2Oc3ccc(N(C)C)cc3C(=O)N([C@H](C)CO)C[C@H]2C)cc1
 : 8	10
(21) C[C@H]1CN([C@@H](C)CO)C(=O)c2cc(-c3cncnc3)cnc2O[C@@H]1CN(C)Cc1ccncc1
 : 8	10
(22) C[C@H]1CN([C@@H](C)CO)C(=O)c2cc(NS(=O)(=O)c3ccc(F)cc3)ccc2O[C@H]1CN(C)C
 : 9	8
(23) C[C@H](CO)N1C[C@H](C)[C@H](CN(C)C(=O)Nc2ccccc2)Oc2cc(-c3cccc(C(=O)N(C)C)c3)ccc2S1(=O)=O
 : -3	-3
(24) N#C[C@H]1[C@H](c2ccccc2)[C@@H](CO)N1C(=O)c1cccnc1
 : 12	17
(25) COc1ccc(NC(=O)Nc2ccc3c(c2)C(=O)N([C@@H](C)CO)C[C@@H](C)[C@@H](CN(C)C)OCCCC[C@H](C)O3)cc1
 : 2	8
(26) C[C@@H]1CN([C@H](C)CO)S(=O)(=O)c2ccc(C#Cc3ccncc3)cc2O[C@@H]1CN(C)C(=O)C1CCCCC1
 : ?	·
(27) COC(=O)N(C)C[C@H]1OCc2cnnn2CCCC(=O)N([C@@H](C)CO)C[C@@H]1C
 : 5	5
(28) O=C(C[C@@H]1C[C@H]2c3cc(NC(=O)CC4CC4)ccc3O[C@H]2[C@@H](CO)O1)NCCc1ccccc1
 : 11	11
(29) COc1ccc(S(=O)(=O)N(C)C[C@@H]2OCCCC[C@H](C)Oc3ccc(NC(=O)CCCN(C)C)cc3C(=O)N([C@H](C)CO)C[C@@H]2C)cc1
 : -11	-8
(30) CO[C@H]1CN(C)C(=O)c2cc(NC(=O)C3CC3)ccc2OC[C@H](C)N(C(=O)c2cccnc2)C[C@@H]1C
 : 2	7
(31) C[C@H](CO)N1C[C@H](C)[C@@H](CN(C)C(=O)NC2CCCCC2)Oc2c(NC(=O)Nc3cccc4ccccc34)cccc2C1=O
 : 14	12
(32) COCC#Cc1cnc2c(c1)C(=O)N([C@@H](C)CO)C[C@H](C)[C@H](CN(C)C(=O)Cc1ccccc1)O2
 : 35	9
(33) Cc1ccc(S(=O)(=O)Nc2ccc3c(c2)C(=O)N([C@@H](C)CO)C[C@H](C)[C@H](CN(C)C(=O)c2ccccc2)OCCCC[C@@H](C)O3)cc1
 : -8	-4
(34) CCC(=O)N1Cc2cc(C(=O)N3CCN(C)CC3)nc(-c3cccc(-c4cccnc4)c3)c2[C@@H]1CCO
 : 8	2
(35) N#C[C@@H]1[C@@H](c2ccccc2-c2cccc(F)c2)[C@@H](CO)N1C(=O)CN1CCOCC1
 : 19	8
(36) CS(=O)(=O)N1C[C@@H](O)COC[C@H]2O[C@@H](CC(=O)NC3Cc4ccccc4C3)CC[C@@H]21
 : 18	4
(37) COc1ccc2c3c(n(C)c2c1)[C@H](CO)N(C(=O)c1cccc(F)c1)CC31CCN(C(=O)c2cccc(F)c2)CC1
 : ?	·
(38) COc1ccc(NC(=O)N(C)C[C@H]2Oc3c(NC(=O)Nc4ccccc4)cccc3C(=O)N([C@H](C)CO)C[C@@H]2C)cc1
 : 1	7
(39) C[C@H]1CN([C@@H](C)CO)C(=O)c2cccc(NC(=O)Nc3ccc4c(c3)OCO4)c2O[C@H]1CN(C)S(=O)(=O)c1ccc(F)cc1
 : -19	-19
(40) CCC(=O)N1C[C@@H](C)[C@H](OC)CN(C)C(=O)c2ccc(NC(=O)c3ccccc3)cc2OC[C@H]1C
 : 13	15
(41) COc1cc(CN2CC3(CCN(S(=O)(=O)c4cccc(F)c4)CC3)c3c([nH]c4cc(OC)ccc34)[C@@H]2CO)cc(OC)c1
 : 18	13
(42) C[C@H](CO)N1C[C@H](C)[C@@H](CN(C)Cc2ccc(Oc3ccccc3)cc2)Oc2c(NC(=O)Nc3ccc4c(c3)OCO4)cccc2C1=O
 : 17	8
(43) COc1ccc(CN(C)C[C@@H]2Oc3c(NC(=O)Nc4ccc(F)cc4)cccc3C(=O)N([C@H](C)CO)C[C@H]2C)cc1
 : -2	1
(44) C[C@@H]1CN([C@@H](C)CO)S(=O)(=O)c2ccc(-c3ccc(F)cc3)cc2O[C@@H]1CN(C)C(=O)C1CCCCC1
 : ?	·
(45) C[C@@H]1CCCCO[C@H](CN(C)S(=O)(=O)c2ccccc2)[C@H](C)CN([C@H](C)CO)C(=O)c2cc(NS(=O)(=O)c3ccccc3)ccc2O1
 : -34	-28
(46) COCC#Cc1cnc2c(c1)C(=O)N([C@@H](C)CO)C[C@H](C)[C@H](CN(C)C(=O)Cc1cccnc1)O2
 : 2	8
(47) CCCc1cn(CC[C@H]2CC[C@H](NS(=O)(=O)c3ccccc3Cl)[C@H](CO)O2)nn1
 : 4	5
(48) CC(C)C(=O)Nc1ccc2c(c1)C(=O)N(C)[C@@H]1CC[C@H](CC(=O)NCc3ccccc3)O[C@H]1CO2
 : 8	15
(49) CCCNC(=O)N1C[C@H](C)[C@@H](OC)CN(C)C(=O)c2ccc(NS(C)(=O)=O)cc2OC[C@H]1C
 : 0	8
(50) C[C@H]1CN([C@@H](C)CO)S(=O)(=O)c2ccc(C#CC3CC3)cc2O[C@H]1CN(C)Cc1ccccn1
 : -22	-17
(51) O=C(C[C@H]1C[C@H]2c3cc(NC(=O)Nc4ccc(C(F)(F)F)cc4)ccc3O[C@H]2[C@H](CO)O1)NCc1cc(F)ccc1F
 : 8	13
(52) C[C@@H]1CCCCO[C@H](CN(C)C(=O)Nc2ccc(C(F)(F)F)cc2)[C@@H](C)CN([C@@H](C)CO)C(=O)c2cc(NC(=O)c3ccccc3)ccc2O1
 : -23	-20
(53) CCCNC(=O)C[C@H]1CC[C@H]2[C@@H](COc3ccc(NC(=O)c4ccccc4)cc3C(=O)N2C)O1
 : 4	11
(54) CCCC#Cc1cnc2c(c1)C(=O)N([C@H](C)CO)C[C@H](C)[C@@H](CN(C)C(=O)C1CCC1)O2
 : -9	-9
(55) C[C@H](CO)N1C[C@H](C)[C@@H](CN(C)C(=O)c2ccccc2F)Oc2ncc(C#C[C@@H](C)O)cc2C1=O
 : 13	7
(56) C[C@@H]1CN([C@@H](C)CO)C(=O)c2cccc(NS(=O)(=O)c3ccc(F)cc3)c2O[C@H]1CN(C)Cc1ccc(C(=O)O)cc1
 : 26	16
(57) C[C@@H]1CN([C@@H](C)CO)C(=O)c2cc(NC(=O)Nc3ccccc3)ccc2O[C@@H](C)CCCCO[C@@H]1CN(C)S(=O)(=O)c1cn(C)cn1
 : 22	8
(58) O=C(C[C@H]1C=C[C@H](NC(=O)Nc2cc(F)ccc2F)[C@@H](CO)O1)NCc1ccc2c(c1)OCO2
 : -3	-2
(59) O=C(CN1CCOCC1)N1CCCCN2[C@H](CO)[C@H](c3ccc(C#Cc4ccccc4F)cc3)[C@H]2C1
 : -13	-35
(60) O=C(C[C@H]1C[C@H]2c3cc(NC(=O)C4CCC4)ccc3O[C@H]2[C@@H](CO)O1)NCc1ccc2c(c1)OCO2
 : 9	11
(61) CO[C@H]1CN(C)C(=O)c2cc(NC(C)=O)ccc2OC[C@@H](C)N(C(=O)C2CCOCC2)C[C@H]1C
 : 28	19
(62) C[C@H]1CN([C@@H](C)CO)C(=O)CCCn2cc(nn2)CO[C@H]1CN(C)Cc1ccccc1C(F)(F)F
 : -22	-13
(63) C[C@@H]1CCCCO[C@@H](CN(C)Cc2ccccc2)[C@H](C)CN([C@H](C)CO)C(=O)c2cc(NC(=O)c3ccncc3)ccc2O1
 : -8	-5
(64) O=C(C[C@@H]1CC[C@@H](NS(=O)(=O)c2ccc(F)cc2)[C@@H](CO)O1)NCc1ccc(Cl)c(Cl)c1
 : -22	-15
(65) O=C(C[C@H]1CC[C@H]2[C@@H](COC[C@@H](O)CN2C(=O)Nc2ccc(F)cc2)O1)NC1Cc2ccccc2C1
 : 1	0
(66) Cc1cccc(CN(C)C[C@@H]2OCc3cnnn3CCCC(=O)N([C@@H](C)CO)C[C@@H]2C)c1
 : 6	0
(67) CCC(=O)N1CC2(C1)CN(C(=O)CC)[C@@H](CO)c1[nH]c3cc(OC)ccc3c12
 : 9	2
(68) O=C(C[C@@H]1CC[C@H]2[C@@H](COC[C@@H](O)CN2Cc2ccccc2F)O1)NC1CCC1
 : 7	2
(69) COc1ccc(S(=O)(=O)Nc2ccc3c(c2)C(=O)N([C@@H](C)CO)C[C@H](C)[C@@H](CN(C)S(=O)(=O)c2ccc(F)cc2)O3)cc1
 : 18	8
(70) CNC[C@H]1Oc2ncc(-c3ccccc3C)cc2C(=O)N([C@@H](C)CO)C[C@H]1C
 : -27	-15
(71) C[C@@H]1CN([C@@H](C)CO)C(=O)c2cc(/C=C/c3ccccc3)cnc2O[C@@H]1CN(C)C(=O)Cc1ccccn1
 : 2	2
(72) C[C@@H]1CN([C@@H](C)CO)C(=O)c2cccc(NC(=O)Nc3ccc4c(c3)OCO4)c2O[C@H]1CN(C)Cc1ccncc1
 : -7	-5
(73) C[C@@H]1CN([C@@H](C)CO)C(=O)c2cc(NS(=O)(=O)c3cn(C)cn3)ccc2O[C@@H](C)CCCCO[C@@H]1CN(C)Cc1ccccc1
 : 59	22
(74) C[C@H]1CN([C@@H](C)CO)C(=O)c2cccc(NC(=O)Nc3ccc4c(c3)OCO4)c2O[C@H]1CN(C)Cc1ccc(Oc2ccccc2)cc1
 : -33	-27
(75) C[C@@H]1CN([C@H](C)CO)S(=O)(=O)c2ccc(-c3cccnc3)cc2O[C@@H]1CN(C)C(=O)C1CCCCC1
 : -1	3

Not all compounds are listed; count on the stated rates, not on these rows.
